# HSD17B inh – blocks hydroxysteroid 17-beta dehydrogenase activity. Q99714. recombinant HSD17B10, NADH fluorescence kinetic; many of its hits are not listed in these tables. Potency, µM (highest dose often 57.1 µM), without a hit: at the highest dose activity change, negative = inhibition, actives largely listed as inhibitors. hit rate 7.6% among 75,000. AID 893; active = well fitted inhibition curve with a large enough effect; inconclusive = small, poorly fitted or top-dose-only effect; inactive = no such curve, though single readings can be large or run the other way;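 also: the protocol describes HADH2 (HSD17B10) and not the HSD17B4 of the title; nearly all actives have a fitted effect of over 70% in size; most hits overshoot -100% by far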
#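 His-tagged E. coli-expressed HADH2 at 20 nM in 100 mM Tris-HCl pH 9.0 with 0.01 % Tween-20, preincubated 15 min with compound at room temperature. Reaction with 1 mM NAD+ and 90 uM beta-hydroxybutyryl coenzyme A; NADH fluorescence (360/450 nm) read kinetically over 4 min, last minus first point.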
# Active calls of the source: *; ? = inconclusive; [ ] = dose if it differs, or a comment. % is scaled to controls: 0 for no effect and ±100 for the full control effect; potency is read from the fitted curve at half-maximal effect.
SMILES,HSD17B inh
CCCCCn1c(CN2CCCCC2C)nc2c1c(=O)n(C)c(=O)n2C (stereo unspecified),9%
O=C(c1ccc(Br)o1)N1CCN(c2ccccn2)CC1,8%
COc1ccc(C(=O)N/N=C2/C(=O)c3c(C)cc(C)cc3CC2(C)C)cc1,12%[11.4 µM]
CCCCNC(=O)Nc1cc(C(=O)OC)ccc1C,-4%
CCOC(=O)c1cnc2nc(NCc3ccc(OC)c(OC)c3)[nH]n2c1=O,-2%
N#CCCn1c(SCC(=O)c2c[nH]c3ccccc23)nc2ccccc21,?
O=C(CCCCCN1C(=O)CCC1=O)NCc1ccccc1,2%
Cc1cn(C(=O)c2cccc(Br)c2)c(C)n1,-3%
CCOc1ccc2nc(SCC#N)c(C#N)cc2c1,-5%
COc1ccccc1NC(=O)C1=C(C)NC(=O)NC1c1cccc(OC)c1OC (stereo unspecified),3%
COc1ccc(C(c2nnnn2C2CCCC2)N2CCC(C)CC2)c(OC)c1 (stereo unspecified),-7%
O=C(c1nc2ncccn2n1)N1CCN(c2ccc(F)cc2)CC1,16%
COc1cc(-c2nnc(CSc3nc4ccccc4s3)o2)cc(OC)c1OC,-30%
CCN(CC)C(=O)c1ccc(CS(=O)(=O)c2ccc(OC)cc2)o1,-3%
Cc1ccccc1-c1nnc(-c2ccc(Br)cc2)o1,-27%
CCN(CC)S(=O)(=O)c1ccc(NC(=O)Cn2c(=O)sc3ccccc32)cc1,10%
COc1cccc(C(=O)Nc2cccc(-c3nc4ncccc4o3)c2C)c1,-1%
O=C(C1CCN(S(=O)(=O)c2cccc3nsnc23)CC1)N1CCc2ccccc21,-8%
Cc1nn(CCc2nn[nH]n2)c2nc(C(F)(F)F)cc(C(F)(F)F)c12,32µM*
COc1ccc(CCC(=O)NCc2ccco2)cc1,-7%
Cc1nc2cc(NC(=O)N3CCC(c4ccccc4)C3)ccc2n1C (stereo unspecified),5%
c1ccc(-c2nn3nnnc3c3ccccc23)cc1,11%
O=S(=O)(c1ccc(Oc2ccccc2)cc1)N1CCOCC1,-7%
COc1ccccc1-c1cc(C(=O)NC(C)c2ccccc2)no1 (stereo unspecified),30%[activator]
COc1ccc(S(=O)(=O)Nc2cc(C)c(O)cc2C(C)C)cc1,-13%
CCOC(=O)c1sc(NC(=O)c2c(C)nn(Cc3ccccc3)c2C)cc1C,?
CN1C(=O)CC(P(=O)(c2ccccc2)c2ccccc2)N(C)C1=O (stereo unspecified),7%
COC(=O)C1=C(N)Oc2cc(C)n(CCc3ccccc3)c(=O)c2C1c1cccnc1 (stereo unspecified),-30%
COc1ccc(OC)c(Nc2cc(-c3ccccc3)nc(N)n2)c1,?
OCCNc1cc(-n2nc(-c3ccccc3)cc2-c2ccccc2)ncn1,-9%

# 18 compounds from above, sorted by SMILES length, low to high.
SMILES,HSD17B inh
COc1ccc(CCC(=O)NCc2ccco2)cc1,-7%
CCCCNC(=O)Nc1cc(C(=O)OC)ccc1C,-4%
Cc1cn(C(=O)c2cccc(Br)c2)c(C)n1,-3%
Cc1ccccc1-c1nnc(-c2ccc(Br)cc2)o1,-27%
O=C(CCCCCN1C(=O)CCC1=O)NCc1ccccc1,2%
O=C(c1ccc(Br)o1)N1CCN(c2ccccn2)CC1,8%
O=S(=O)(c1ccc(Oc2ccccc2)cc1)N1CCOCC1,-7%
COc1ccccc1-c1cc(C(=O)NC(C)c2ccccc2)no1 (stereo unspecified),30%[activator]
O=C(c1nc2ncccn2n1)N1CCN(c2ccc(F)cc2)CC1,16%
Cc1nc2cc(NC(=O)N3CCC(c4ccccc4)C3)ccc2n1C (stereo unspecified),5%
COc1ccc(S(=O)(=O)Nc2cc(C)c(O)cc2C(C)C)cc1,-13%
OCCNc1cc(-n2nc(-c3ccccc3)cc2-c2ccccc2)ncn1,-9%
CN1C(=O)CC(P(=O)(c2ccccc2)c2ccccc2)N(C)C1=O (stereo unspecified),7%
COc1ccc(C(c2nnnn2C2CCCC2)N2CCC(C)CC2)c(OC)c1 (stereo unspecified),-7%
COc1ccccc1NC(=O)C1=C(C)NC(=O)NC1c1cccc(OC)c1OC (stereo unspecified),3%
Cc1nn(CCc2nn[nH]n2)c2nc(C(F)(F)F)cc(C(F)(F)F)c12,32µM*
O=C(C1CCN(S(=O)(=O)c2cccc3nsnc23)CC1)N1CCc2ccccc21,-8%
COC(=O)C1=C(N)Oc2cc(C)n(CCc3ccccc3)c(=O)c2C1c1cccnc1 (stereo unspecified),-30%

# The list continues.
SMILES,HSD17B inh
CCNS(=O)(=O)c1ccc(S(=O)(=O)N(Cc2ccccn2)C2CCCCC2)cc1,-1%
CCn1ncc(C2=NOC(C(=O)Nc3c(C)nn(Cc4ccc(F)cc4)c3C)C2)c1C (stereo unspecified),-4%
CCN(Cc1cc2ccccc2[nH]c1=O)C(=O)C1CCCCC1,-15%
Nc1cc(=O)[nH]c(=O)n1Cc1ccccc1,3%
CCCCn1c(SCC(=O)Nc2nnc(C)s2)nnc1-c1ccoc1C,13%
Fc1ccccc1N1CCN(Cc2nc(-c3ccc(Cl)cc3Cl)no2)CC1,-7%
Cc1ccc(-c2nn(C)c(=O)c3ccccc23)cc1S(=O)(=O)NCCN1CCOCC1,?
O=C(Cn1nc(C(F)(F)F)c2c1CCCC2)Nc1ccc2c(c1)OCO2,0%
CC(C)OCCCNS(=O)(=O)c1ccc2c(c1)oc(=O)n2C,5%
O=C(C1CCCN(S(=O)(=O)c2cccs2)C1)N1CCc2ccccc2C1 (stereo unspecified),-8%

# Screening data as filed in PubChem BioAssay.

# The list is partial; count on the stated rates, not on these rows.
